# Screening data from PubChem BioAssay.
# MbtI inh = MbtI salicylate synthase inhibitors, primary screen, biochemical, fluorescence intensity | purified MbtI enzyme, fluorescence intensity read-out | inhibition, %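 (about 17 µg/mL by stock and volumes)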 | 0.89% of 100,000 active | AID 493033, 2011;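 active means above 50% in both replicates, above 80% if mildly self-fluorescent; inactive means the rest, strongly fluorescent compounds included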;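 further: 0% = mean of negative and 100% = mean of positive controls; one replicate is shown; some compounds called inactive have numbers as strong as hits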
# Target sequence (P9WFX0 whole entry, looked up): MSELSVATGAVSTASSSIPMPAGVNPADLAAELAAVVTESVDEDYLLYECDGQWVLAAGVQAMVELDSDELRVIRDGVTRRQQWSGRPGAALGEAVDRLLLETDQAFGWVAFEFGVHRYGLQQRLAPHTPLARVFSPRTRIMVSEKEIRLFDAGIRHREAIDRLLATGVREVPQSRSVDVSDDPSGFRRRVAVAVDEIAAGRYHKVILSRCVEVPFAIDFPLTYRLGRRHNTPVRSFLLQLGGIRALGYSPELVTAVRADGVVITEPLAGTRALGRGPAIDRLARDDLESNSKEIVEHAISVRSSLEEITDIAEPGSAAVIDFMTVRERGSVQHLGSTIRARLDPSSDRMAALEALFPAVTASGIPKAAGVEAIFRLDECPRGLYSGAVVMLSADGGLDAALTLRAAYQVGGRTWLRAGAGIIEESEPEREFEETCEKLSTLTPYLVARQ
# PV pol inh = poliovirus RdRp elongation inhibitors, primary screen, biochemical, fluorescence polarization, total intensity; Genome polyprotein (Poliovirus type 1 (strain Mahoney)), P03300; poliovirus polymerase elongation; stronger effect = lower value; % elongation, % (compound at 16.7 µg/mL); 0.66% of 150,000 active; AID 588519, 2011; in the data active means % elongation below about 90%; further: some results filed as inactive read as strong as hits
# Mtb MenB inh = M. tuberculosis MenB inhibitors, primary screen, biochemical, absorbance; 1,4-dihydroxy-2-naphthoyl-CoA synthase (Mycobacterium tuberculosis (strain ATCC 25618 / …; MenB enzyme assay, absorbance read-out; some hits fall short of the stated cut; inhibition, %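 (about 12 µg/mL by stock and volumes)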; 0.43% of 100,000 active; AID 540299, 2011;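 active means mean of two replicates above 30%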;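 further: 0% = no compound and 100% = wells with inactive enzyme; the first replicate is given; strong numbers were not always called active; inactives centre near -10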
# Target sequence (P9WNP5 whole entry, looked up): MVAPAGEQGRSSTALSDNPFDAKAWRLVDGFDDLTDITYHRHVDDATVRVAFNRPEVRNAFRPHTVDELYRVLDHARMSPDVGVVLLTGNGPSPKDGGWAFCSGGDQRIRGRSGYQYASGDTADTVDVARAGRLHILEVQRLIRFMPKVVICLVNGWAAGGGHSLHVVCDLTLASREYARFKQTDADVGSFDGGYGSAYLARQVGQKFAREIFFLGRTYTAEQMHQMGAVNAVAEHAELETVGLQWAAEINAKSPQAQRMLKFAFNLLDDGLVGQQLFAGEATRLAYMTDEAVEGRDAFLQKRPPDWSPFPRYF
# PV pol inh intensity = also measured in PV pol inh; calls as there; % elongation; measured here: total intensity read-out; formula for this scale not given here;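 total fluorescence in place of polarization; lower means less elongation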
# * = called active by the depositor; / = no result given.
SMILES,MbtI inh,PV pol inh,PV pol inh intensity,Mtb MenB inh
CCc1ccc(/C=C2\C(=N)N3N=C(N4CCCC4)SC3=NC2=O)cc1,4,102,104,-3
COc1ccc(Br)cc1CNC(=O)c1oc2ccc3c(c2c1C)C(=O)CC(C)(C)O3,-2,99,103,-16
CSc1ccccc1CNC(=O)NC12CC3CC(CC(C3)C1)C2,-10,105,106,0
Nc1nnc(CCS(=O)(=O)c2ccc(Br)cc2)s1,33,100,95,-23
CC(C)(CC(=O)O)CC(=O)N1CCCN(c2nccc(C(F)(F)F)n2)CC1,2,103,95,14
COC(=O)C(C)Sc1ncnc2sc(C)c(C)c12 (stereo unspecified),-12,101,107,1
Cc1cc(C)cc(OCCCCn2cncn2)c1,-4,101,103,-10
CCCN1c2cccc3cccc(c23)S1(=O)=O,90,101,104,-23
COc1ccc(N=Cc2cn(-c3ccc(OC)cc3)cc2C=Nc2ccc(OC)cc2)cc1,-3,102,99,-10
O=C(NCc1ccc2c(c1)OCO2)C1CC2C=CC1C2 (stereo unspecified),3,103,99,-14
Cc1ccc(S(=O)(=O)NC(=O)c2cccn2C)cc1,-13,100,96,/
O=C(O)C(Cc1cnc[nH]1)N1C(=O)c2ccccc2C1=O (stereo unspecified),4,103,102,-14
O=C(CSc1nnc(Cc2cccs2)n1Cc1ccco1)Nc1ccc(Br)cc1,20,101,103,-11
O=C1c2ccccc2C(=O)N1CCCCN1C(=O)c2ccccc2S1(=O)=O,-3,102,104,-33
CS(=O)(=O)c1cc2cc(Cl)ccc2oc1=O,101,104,111,1
Cc1cc2cc(CNS(=O)(=O)c3ccc(Cl)cc3)ccc2n1C,-10,100,103,-14
CC1CCC(C)C(NC(=O)c2ccc(I)cc2)C1 (stereo unspecified),/,101,95,-12
Cc1occc1C(=O)N/N=C/C=C/c1ccccc1,18,102,102,3
CCc1cc(=O)oc2cc(O)cc(O)c12,-50,98,97,47*
COc1nc(NCCc2ccc(OC)c(OC)c2)nc(Nc2ccc(Cl)cc2)n1,44,102,100,-25
CCCCc1cc(=O)oc2cc3oc4c(c3cc12)CCCC4,21,102,101,-3
COc1ccccc1CN1CCC(C(=O)NCc2ccc(C)cc2)CC1,-5,101,97,-22
O=C(N/C(=C/c1ccccc1)C(=O)N1CCc2ccccc2C1)c1ccccc1,/,96,94,-13
CSc1cccc2c(SC)cccc12,/,111,115,-13
C=C(C)Cn1c(CCn2c3ccccc3c3ccccc32)nnc1SCC(=O)OC,-45,103,102,-29

# Quoted at random: 2 records from the list.
SMILES,MbtI inh,PV pol inh,PV pol inh intensity,Mtb MenB inh
O=C(O)C(Cc1cnc[nH]1)N1C(=O)c2ccccc2C1=O (stereo unspecified),4,103,102,-14
O=C(CSc1nnc(Cc2cccs2)n1Cc1ccco1)Nc1ccc(Br)cc1,20,101,103,-11

# A different layout for some results above.
molecule	MbtI inh	PV pol inh	PV pol inh intensity	Mtb MenB inh
O=C(NCc1ccc2c(c1)OCO2)C1CC2C=CC1C2 (stereo unspecified)	3	103	99	-14
O=C(CSc1nnc(Cc2cccs2)n1Cc1ccco1)Nc1ccc(Br)cc1	20	101	103	-11
CS(=O)(=O)c1cc2cc(Cl)ccc2oc1=O	101	104	111	1
O=C(O)C(Cc1cnc[nH]1)N1C(=O)c2ccccc2C1=O (stereo unspecified)	4	103	102	-14

# Later entries.
SMILES,MbtI inh,PV pol inh,PV pol inh intensity,Mtb MenB inh
COc1ccc(-c2noc(CNC(=O)CC(C)(C)C)n2)cc1,-6,101,102,2
CNC(=O)COc1ccc(Oc2ccc(C)cc2)cc1,-18,104,106,/
Cn1nnnc1SCc1ccc(C(=O)Nc2ccc(Br)cc2)cc1,-1,101,105,0
CC(C(=O)O)n1c(=S)[nH]c2ccccc2c1=O (stereo unspecified),0,106,107,-3
CC(C)N1CCCC(CN)C1 (stereo unspecified),0,103,103,-22
CCOC(=O)c1c(N)sc(C(=O)N2CCOCC2)c1C,/,105,99,-1
Nc1c(C(=O)NCc2ccccc2)nnn1Cc1ccccc1,6,99,102,-12
O=C(COc1ccc(C(=O)c2ccccc2)cc1)NCC1CCCCC1,-6,98,95,/
N#CC1=C(N)NC(SCC(N)=O)=C(C#N)C1c1ccccc1Cl (stereo unspecified),/,101,108,-11
N#C/C(=N/O)c1nc2ccccc2s1,/,104,104,-1
S=C(Cc1ccccc1)N1CCCCC1,30,96,91,4
COc1ccc(SCC(=O)c2ccc(O)cc2O)cc1,35,100,105,-12
Cc1ccc(C(=O)NCCn2cccc2)cc1,-5,102,99,-32
Cc1ccc(N(CC(=O)N2CCCCCC2)S(=O)(=O)c2c(C)noc2C)cc1,3,103,97,-20
O=C(NO)c1cc(-c2ccccc2)nn1-c1ccccc1,-9,98,96,/
Cc1cc(C)nc(NC2=NCC(=O)N2c2ccc(Oc3ccccc3)cc2)n1,-3,101,103,-22
O=C(Nc1ccc(-n2cnnn2)cc1)C1(Cc2nc3ccccc3s2)CCCC1,-3,101,98,-13
CCC1CCCCN1C(=O)c1sc2nc(-c3ccccc3)cn2c1C (stereo unspecified),-2,101,97,-24
Cc1ccc(NC(=O)c2cc(C)on2)cc1,-6,101,101,3
Cc1cc2cc(CNC(=O)COc3ccc4ccccc4c3)ccc2n1C,103,98,107,-29
CC1Sc2cc(S(=O)(=O)NCc3ccccc3)ccc2NC1=O (stereo unspecified),-3,99,105,-12
CCCN1C(=N)C(c2nc3ccccc3s2)=C(O)C1c1ccccc1 (stereo unspecified),112,102,106,-13
Cc1cc(=O)[nH]c(SCC(=O)N(c2ccccc2)c2ccccc2)n1,11,103,102,9
CCOc1ccc(Nc2ncnc3c2cnn3-c2ccccc2)cc1,5,102,101,11
COc1ccc(C=C2C(=O)N(C)C(=O)N(C)C2=O)cc1,12,101,101,-23

# Profiles from above. Order of screens: MbtI inh | PV pol inh | PV pol inh intensity | Mtb MenB inh
# Shown for CNC(=O)COc1ccc(Oc2ccc(C)cc2)cc1 → -18 | 104 | 106 | /
# Shown for COc1ccc(SCC(=O)c2ccc(O)cc2O)cc1 → 35 | 100 | 105 | -12

# New compounds follow.
SMILES,MbtI inh,PV pol inh,PV pol inh intensity,Mtb MenB inh
CC(C)Nc1nc(Cl)nc(NNC(=O)C(C)Oc2ccccc2)n1 (stereo unspecified),0,106,97,-59
O=c1[nH]cc(-c2ccc(Br)cc2)n1Cc1ccccc1,-6,96,96,-44
O=C(O)/C=C/c1csc(-c2ccc(F)cc2)n1,31,101,103,-8
CC(C)c1ccc(N/C=C2/CCCCC2=O)cc1,-14,103,105,-12
CCC(C)(C)NS(=O)(=O)Cc1ccccc1,13,103,100,3
CCNC(=O)CCSc1nc(C)cc(C)n1,45,103,101,-23
Cc1noc(C)c1COC(=O)CCC(=O)c1ccc(F)cc1,5,104,113,-9
CCC(=O)Nn1cnc2c(cnn2-c2ccccc2)c1=O,15,97,106,-3
CCCN(CCC)C(=O)c1noc2c1CC(C)CC2 (stereo unspecified),-12,105,103,-31
CCC(C)c1ccc(NC(=S)N2CCN(S(C)(=O)=O)CC2)cc1 (stereo unspecified),-13,102,103,-6
CCNC(=O)c1ccc(NS(C)(=O)=O)cc1,-13,101,102,-3
CC(C)=C1C2C=CC1C1C(=O)N(c3ccccc3)C(=O)C21 (stereo unspecified),12,99,102,3
C=CC(=O)NC1(CCC)CCCCC1,-5,98,102,14
O=C(N/N=C/c1ccc[nH]1)c1cccc(Cl)c1,23,102,109,-8
Cc1nn(-c2ccccc2)nc1C(=O)NC(=O)N1CC(C)OC(C)C1 (stereo unspecified),-15,108,115,-8
Cc1ccc2nc(Cl)c3cc(C(=O)NCCN4CCN(C)CC4)sc3c2c1,-6,102,102,-9
O=C(O)CSC(=S)N1CCCC1,-4,100,101,-3
COc1ccc(CCNS(=O)(=O)c2ccc(C)cc2)cc1OC,3,100,99,3
O=C(NC(=O)N1CCOCC1)c1ccc(S(=O)(=O)N2CCOCC2)cc1,0,101,96,5
Cc1cc(C)n(C(=O)CNC(=O)c2cccs2)n1,6,101,102,11
CCOc1ccc(CNC(=O)C2CCCN2S(=O)(=O)c2ccc3c(c2)CCCC(=O)N3)cc1 (stereo unspecified),-9,102,100,-29
CCOc1ccccc1-c1noc(-c2cccc(OC)c2)n1,-22,101,102,-21
Cc1noc(C)c1CSc1nc(C)c(C)n1C1CCCCC1,16,105,101,7
CC(C)(C)c1cc(CN2C(=O)c3ccccc3C2=O)cc(C(C)(C)C)c1O,0,104,99,-3
O=C(Nc1cccnc1)c1ncoc1-c1ccc2ccccc2c1,48,102,104,-10
SMILES,MbtI inh,PV pol inh,PV pol inh intensity,Mtb MenB inh
CC(=O)N1CCN(C2=Nc3cccc4cccc2c34)CC1,7,90,134,-115
CC(C)(C)P(=Nc1ccc(Br)cc1)(N1CCOCC1)N1CCOCC1,-9,102,110,-6
CC(C)Cn1c(=O)[nH]c2ccccc21,6,101,99,-39
O=C(O)c1cccc(N=C2NC(=O)C(CO)(CO)S2)c1,30,101,102,11
CCN(CC)S(=O)(=O)c1ccc2c(c1)CCCN2C(=O)OC,-15,104,103,-16
O=C(Nc1ccccc1)c1ccco1,14,104,104,-38
COc1ccc(SCc2nsc(Sc3ccc(OC)cc3)n2)cc1,-7,103,100,-23
CCC(C)(C)n1nnnc1C(c1ccc(Cl)cc1)N1CCN(c2nc3ccccc3s2)CC1 (stereo unspecified),0,103,103,23
CCc1ccc2c(c1)c1nnc(SCC(=O)c3ccc(OC)cc3)nc1n2C,-3,101,103,10
Cc1cccc(C)c1NC(=S)N1CCCC1=O,-5,99,101,9
CC(=O)N1CCN(c2ccccc2NC(=S)NC(=O)CC(C)C)CC1,-7,101,98,-36
C=CCN1C(=O)NC(=O)/C(=C/c2ccccc2OCc2ccc(F)cc2)C1=O,/,101,101,-25
C/S(=N\S(=O)(=O)c1ccc(Cl)cc1)c1ccccc1 (stereo unspecified),3,102,98,1
CCOC(=O)c1c(N)sc(=S)c2c1CCC2,6,98,95,-40
O=C(CSCc1cccc2ccccc12)Nc1ccc(C(F)(F)F)cc1,-5,95,102,2
O=C(CSc1nc(N2CCOCC2)nc(N2CCOCC2)n1)c1ccccc1,6,101,102,-21
O=C(c1ccc2c(c1)N(Cc1ccccc1)C(=O)c1ccccc1S2=O)N1CCN(C(=O)c2ccco2)CC1 (stereo unspecified),-2,101,102,-1
COc1ccc(C2NC(=O)NC(C)=C2C(=O)c2ccccc2)cc1OC (stereo unspecified),4,102,98,-3

# A different layout for some results above.
CC(C)Cn1c(=O)[nH]c2ccccc21
- MbtI inh = 6
- PV pol inh = 101
- PV pol inh intensity = 99
- Mtb MenB inh = -39
CC(=O)N1CCN(C2=Nc3cccc4cccc2c34)CC1
- MbtI inh = 7
- PV pol inh = 90
- PV pol inh intensity = 134
- Mtb MenB inh = -115
C/S(=N\S(=O)(=O)c1ccc(Cl)cc1)c1ccccc1 (stereo unspecified)
- MbtI inh = 3
- PV pol inh = 102
- PV pol inh intensity = 98
- Mtb MenB inh = 1
O=C(O)c1cccc(N=C2NC(=O)C(CO)(CO)S2)c1
- MbtI inh = 30
- PV pol inh = 101
- PV pol inh intensity = 102
- Mtb MenB inh = 11

# Hits appear at their usual frequency (roughly 2% active in at least one column).
